# Ecoli rRNA inh: reduced GFP signal of wild-type E. coli, primary screen, bacterial rRNA inhibitor project, GFP/RFP fluorescence, OD600, single point; E. coli WT GFP vs humanized-ribosome RFP mutants, 24 h; active compounds read low; DMSO median 0, no signal -100; GFP signal change (wild-type ribosome), % (concentration not given with the values); hit rate 1.6% among 350,000; AID 720706, 2013;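 active means significant combined selectivity score with lowered wild-type GFP, culture density cut under 30%, mutant RFP and density less affected; inactive means any of these conditions unmet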; further: one replicate is shown; some compounds called inactive have numbers as strong as hits
# FGF22 binding: binders of human FGF22 protein, primary screen, FGF22 synaptogenesis inhibitor project, biophysical, thermal shift, single point | Fibroblast growth factor 22 (Homo sapiens), Q9HCT0 | recombinant FGF22 thermal shift, SYPRO orange fluorescence; percent of sucrose octasulfate shift, DMSO zero | calls only at 9.99 µM | hit rate 1.5% among 340,000 | AID 651658, 2012;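 active means melting point raised past a set limit in the mean and every replicate; three in four hits are not shown here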
# Target sequence (Q9HCT0 whole entry, looked up): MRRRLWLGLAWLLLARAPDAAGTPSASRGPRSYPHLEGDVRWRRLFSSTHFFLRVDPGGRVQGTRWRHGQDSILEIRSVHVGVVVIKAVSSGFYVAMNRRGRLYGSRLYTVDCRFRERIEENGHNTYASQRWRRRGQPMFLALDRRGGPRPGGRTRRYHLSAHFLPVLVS
# Ecoli rRNA inh OD600: further read-out of Ecoli rRNA inh, marked with its call; OD600 change, %; measured here: OD600 growth;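 optical density of the mix in the first replicate; 0 = DMSO median and -100 = no signal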
# Ecoli rRNA inh RFP: further read-out of Ecoli rRNA inh, marked with its call; RFP signal change, %; measured here: RFP humanized mutant strains;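 first replicate; 0 = DMSO median and -100 = no signal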
# * hit, by the source's call; i = inactive; . = not tested or not shown. The list is partial, so the mix of outcomes need not match the whole.
SMILES,Ecoli rRNA inh,FGF22 binding,others
C[C@H]1CN([C@@H](C)CO)S(=O)(=O)c2ccc(-c3cncnc3)cc2O[C@H]1CN(C)Cc1ccccn1,.,i,
CO[C@@H]1CN(C)C(=O)c2cc(NC(=O)c3nc4ccccc4s3)ccc2OC[C@H](C)N(Cc2ccncc2)C[C@H]1C,.,i,
Cc1cccc(S(=O)(=O)N2CCCCN3[C@H](CO)[C@H](c4ccc(-c5ccccc5)cc4)[C@@H]3C2)c1,.,i,
C=CCOC(=O)C(=O)/C=C/c1ccc(OC)cc1,.,i,
C[C@@H]1CN([C@@H](C)CO)C(=O)c2cc(N(C)C)ccc2O[C@@H]1CN(C)Cc1ccc(C(=O)Nc2ccccc2N)cc1,.,i,
COC(=O)C(CC#Cc1ccc2c(c1)[C@]1(C(=O)N2)[C@H](c2ccc(OCCO)cc2)N2[C@H](c3ccccc3)[C@H](c3ccccc3)OC(=O)[C@H]2[C@@H]1C(=O)Nc1nc2ccccc2s1)C(=O)OC,.,i,
CN1C(=O)c2cc(NC(=O)c3ccccc3Cl)ccc2OC[C@H]2O[C@@H](CC(=O)O)CC[C@@H]21,.,i,
COC(=O)c1c2oc(c1C(=O)OC)C(=O)N[C@@H](Cc1ccccc1)Cn1cc(nn1)[C@@H](Cc1ccccc1)NC(=O)N[C@@H](CO)CC2,.,i,
O=C(C1=C[C@H](C2CCCCC2)C[C@H](OCc2ccc(CO)cc2)O1)N1CCCC1,.,i,
NC(=O)[C@H]1[C@@H]2C(=O)O[C@@H](c3ccccc3)[C@@H](c3ccccc3)N2[C@@H](c2ccc(O)cc2)[C@]12C(=O)Nc1ccc(C#CCCO)cc12,.,i,
CC(C)[C@@H](C)/C=C/[C@@H](C)[C@H]1CC[C@@H]2[C@]1(C)CCC1[C@]23C=C[C@]2(C[C@@H](O)CC[C@]12C)N(c1ncc(C(F)(F)F)cc1Cl)O3 (stereo partly drawn),.,i,
COc1ccc(CN(C)C[C@@H]2Oc3c(NC(=O)c4ccc(-c5nccs5)cc4)cccc3C(=O)N([C@@H](C)CO)C[C@H]2C)cc1,.,i,
Cn1cc(C[C@@H](N)C(=O)O)c2ccccc21,.,i,
C[C@H]1CN([C@@H](C)CO)S(=O)(=O)c2ccc(C#Cc3ccc(F)cc3)cc2O[C@@H]1CN(C)S(=O)(=O)c1cn(C)cn1,.,i,
COCCOC(=O)N1C(=O)[C@@]2(c3cc(C#Cc4ccc(OC)cc4)ccc31)[C@H](c1ccccc1OCCO)N1[C@H](c3ccccc3)[C@H](c3ccccc3)OC(=O)[C@H]1[C@@H]2C(=O)N1CCc2cc(OC)c(OC)cc2C1,.,i,
Cc1noc(C)c1S(=O)(=O)N(C)C[C@H]1OCCCC[C@H](C)Oc2ccc(NS(C)(=O)=O)cc2C(=O)N([C@@H](C)CO)C[C@@H]1C,.,i,
O=C(C1=C[C@H](c2ccccc2)C[C@H](OCc2ccc(CO)cc2)O1)N1CCCC1,.,i,
O=C1[C@@H]2[C@@H](CC(COc3ccccc3)=C([C@H](O)c3ccccc3)[C@@H]2CO)C(=O)N1Cc1ccccc1,.,i,
Cc1ccc(S(=O)(=O)N[C@H](C(=O)NCCN=[N+]=[N-])C(C)C)cc1,.,i,
C=CCN1Cc2ccccc2C[C@@]2(COC(c3ccc(OCCCO)cc3)=N2)C1=O,.,i,
Cc1noc(C)c1S(=O)(=O)N(C)C[C@H]1OCCCC[C@H](C)Oc2ccc(N(C)C)cc2C(=O)N([C@@H](C)CO)C[C@@H]1C,.,i,
O=C(NCc1ccccc1)[C@@]1(CCS(=O)(=O)c2ccccc2)N=C(c2ccc(OCCCO)cc2)O[C@H]1c1ccccc1,.,i,
CCOC(=O)c1c(Nc2ccc(OC)cc2)n[nH]c1C,.,i,
OC[C@H]1[C@@H](c2ccc(-c3cccnc3)cc2)[C@@H]2CN(CC3CCOCC3)CCCCN12,.,i,
C[C@H](CO)N1C[C@H](C)[C@H](CN(C)C(=O)Nc2ccccc2)Oc2c(NC(=O)Nc3ccc(C(F)(F)F)cc3)cccc2C1=O,.,i,
COc1cc(-c2c(C(=O)c3ccccc3)[nH]c(N)c2C(=O)NCCc2c[nH]c3ccccc23)ccc1F,.,i,
CCC#CCN(Cc1ccccc1Br)[C@H](/C=C/c1ccccc1)[C@@H](O)Cc1ccccc1,.,i,
COc1ccc(S(=O)(=O)Nc2cccc3c2O[C@@H](CN(C)S(=O)(=O)c2ccc(OC)cc2)[C@H](C)CN([C@@H](C)CO)C3=O)cc1,.,i,
CCCNC(=O)N1[C@H](C#N)[C@H](c2ccc(-c3cccc(OC)c3)cc2)[C@@H]1CO,.,i,
COc1ccc(OC)c(NC(=O)CN=[N+]=[N-])c1,.,i,
C[C@H](CO)N1C[C@H](C)[C@H](CN(C)C(=O)CCC(F)(F)F)OCCCC[C@H](C)Oc2ccc(NS(=O)(=O)c3ccccc3)cc2C1=O,.,i,
CCOC(=O)C1=CC[C@@H](c2ccc3ccccc3n2)[C@@H]1C(=O)c1ccccc1,.,i,
O=C(Nc1ccccc1)N[C@H](Cc1ccccc1)Cn1cc(CN2C(=O)COC[C@H]2c2ccccc2)nn1,.,i,
Cn1c(=O)c2ccccc2n(C)c1=O,.,i,
O=C(c1cccc(F)c1)N1CCCCN2[C@H](CO)[C@@H](c3ccc(-c4ccc(F)cc4)cc3)[C@H]2C1,.,i,
C=CC[C@@]1(C(=O)NCC(O)CO)N=C(c2ccc(OCCCO)cc2)O[C@@H]1c1ccccc1 (stereo partly drawn),.,i,
COc1cc2c(cc1O)C=[N+](Cc1cccc(OC(F)(F)F)c1)CC2,.,i,
O=C(C1=C[C@@H](c2ccc3c(c2)OCO3)C[C@@H](OCc2ccc(CO)cc2)O1)N1CCCCC1,.,i,
C[C@H](CO)N1C[C@H](C)[C@H](CN(C)C(=O)Nc2ccc(F)cc2)Oc2cc(/C=C/c3ccccc3)ccc2S1(=O)=O,.,i,
CCNC(=O)C[C@H]1CC[C@H]2[C@@H](COc3ccc(NC(=O)Nc4ccc(Cl)cc4)cc3C(=O)N2C)O1,.,i,
C=CCN1C(=O)[C@]2(O[C@H](CCn3cc([C@H](O)c4ccccc4)nn3)[C@@H]([Si](C)(C)c3ccc(OC)cc3)[C@@H]2C)c2cc(N3CCC3=O)ccc21,.,i,
COCCOC(=O)N1C(=O)[C@@]2(c3cc(C#CCC(C(=O)OC)C(=O)OC)ccc31)[C@H](c1ccccc1OCCO)N1[C@H](c3ccccc3)[C@H](c3ccccc3)OC(=O)[C@H]1[C@@H]2C(=O)NC[C@H](O)c1ccccc1,.,i,
O=C(NCc1ccc(F)cc1)[C@@H]1C[C@@H]2C(=O)N3CCC[C@H]3C(=O)N2[C@@H]1c1ccc(O)cc1,.,i,
COc1ccc(CCN2C(=O)[C@@]3(Cc4ccccc42)c2ccccc2C(=O)N(Cc2ccccc2C(F)(F)F)[C@H]3c2ccc(CO)cc2)cc1,.,i,
CO[C@@H]1CN(C)C(=O)c2ccc(NC(=O)c3ccc(F)cc3)cc2OC[C@@H](C)N(C(C)=O)C[C@H]1C,.,i,
COc1ccc(NC(=O)O[C@H]2[C@H](OC(=O)Nc3ccc4c(c3)OCO4)[C@@H](OC(=O)Nc3ccc4c(c3)OCO4)[C@@H](OC)O[C@@H]2CO)cc1,.,i,
OCC1SC(O)C(O)C(O)C1O (stereo not drawn),.,i,
COc1ccc(C#Cc2ccc3c(c2)[C@]2(C(=O)N3)[C@H](c3ccc(O)cc3)N3[C@H](c4ccccc4)[C@H](c4ccccc4)OC(=O)[C@H]3[C@@H]2C(=O)N2CCc3cc(OC)c(OC)cc3C2)cc1,.,i,
O=C(c1ccccc1)N1Cc2ccccc2[C@@H]2OC(c3ccc(OCCCO)cc3)=N[C@]2(Cc2ccccc2)C1=O,.,i,
CCCCNC(=O)C(COCc1ccccc1)OC(=O)c1ccccc1 (stereo not drawn),.,i,
O=C(C[C@@H]1C=C[C@H](NC(=O)Nc2ccc(C(F)(F)F)cc2)[C@H](CO)O1)NCc1cccc(F)c1,7,.,Ecoli rRNA inh OD600=-14;Ecoli rRNA inh RFP=-1.7
C[C@@H]1CN([C@H](C)CO)C(=O)c2cc(NS(=O)(=O)c3ccc(Cl)cc3)ccc2O[C@@H]1CN(C)C(=O)Nc1ccc(C(F)(F)F)cc1,-2,.,Ecoli rRNA inh OD600=-8;Ecoli rRNA inh RFP=-4.6

# Nothing new here: 18 of the compounds above.
SMILES,Ecoli rRNA inh,FGF22 binding,others
C[C@H]1CN([C@@H](C)CO)S(=O)(=O)c2ccc(-c3cncnc3)cc2O[C@H]1CN(C)Cc1ccccn1,.,i,
CO[C@@H]1CN(C)C(=O)c2cc(NC(=O)c3nc4ccccc4s3)ccc2OC[C@H](C)N(Cc2ccncc2)C[C@H]1C,.,i,
Cc1cccc(S(=O)(=O)N2CCCCN3[C@H](CO)[C@H](c4ccc(-c5ccccc5)cc4)[C@@H]3C2)c1,.,i,
C=CCOC(=O)C(=O)/C=C/c1ccc(OC)cc1,.,i,
C[C@@H]1CN([C@@H](C)CO)C(=O)c2cc(N(C)C)ccc2O[C@@H]1CN(C)Cc1ccc(C(=O)Nc2ccccc2N)cc1,.,i,
COC(=O)C(CC#Cc1ccc2c(c1)[C@]1(C(=O)N2)[C@H](c2ccc(OCCO)cc2)N2[C@H](c3ccccc3)[C@H](c3ccccc3)OC(=O)[C@H]2[C@@H]1C(=O)Nc1nc2ccccc2s1)C(=O)OC,.,i,
CN1C(=O)c2cc(NC(=O)c3ccccc3Cl)ccc2OC[C@H]2O[C@@H](CC(=O)O)CC[C@@H]21,.,i,
COC(=O)c1c2oc(c1C(=O)OC)C(=O)N[C@@H](Cc1ccccc1)Cn1cc(nn1)[C@@H](Cc1ccccc1)NC(=O)N[C@@H](CO)CC2,.,i,
O=C(C1=C[C@H](C2CCCCC2)C[C@H](OCc2ccc(CO)cc2)O1)N1CCCC1,.,i,
NC(=O)[C@H]1[C@@H]2C(=O)O[C@@H](c3ccccc3)[C@@H](c3ccccc3)N2[C@@H](c2ccc(O)cc2)[C@]12C(=O)Nc1ccc(C#CCCO)cc12,.,i,
CC(C)[C@@H](C)/C=C/[C@@H](C)[C@H]1CC[C@@H]2[C@]1(C)CCC1[C@]23C=C[C@]2(C[C@@H](O)CC[C@]12C)N(c1ncc(C(F)(F)F)cc1Cl)O3 (stereo partly drawn),.,i,
COc1ccc(CN(C)C[C@@H]2Oc3c(NC(=O)c4ccc(-c5nccs5)cc4)cccc3C(=O)N([C@@H](C)CO)C[C@H]2C)cc1,.,i,
Cn1cc(C[C@@H](N)C(=O)O)c2ccccc21,.,i,
C[C@H]1CN([C@@H](C)CO)S(=O)(=O)c2ccc(C#Cc3ccc(F)cc3)cc2O[C@@H]1CN(C)S(=O)(=O)c1cn(C)cn1,.,i,
COCCOC(=O)N1C(=O)[C@@]2(c3cc(C#Cc4ccc(OC)cc4)ccc31)[C@H](c1ccccc1OCCO)N1[C@H](c3ccccc3)[C@H](c3ccccc3)OC(=O)[C@H]1[C@@H]2C(=O)N1CCc2cc(OC)c(OC)cc2C1,.,i,
Cc1noc(C)c1S(=O)(=O)N(C)C[C@H]1OCCCC[C@H](C)Oc2ccc(NS(C)(=O)=O)cc2C(=O)N([C@@H](C)CO)C[C@@H]1C,.,i,
O=C(C1=C[C@H](c2ccccc2)C[C@H](OCc2ccc(CO)cc2)O1)N1CCCC1,.,i,
O=C1[C@@H]2[C@@H](CC(COc3ccccc3)=C([C@H](O)c3ccccc3)[C@@H]2CO)C(=O)N1Cc1ccccc1,.,i,

# Screening data deposited in PubChem by Broad Institute.
